Bead autofluor = compound fluorescence in toxin protease inhibitor counterscreen | AID 624483 | compound autofluorescence counterscreen, microsphere flow cytometry; stronger effect = higher value | fluorescence intensity (no concentration beside the values) | 360,000 compounds, 3.1% hits;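 active means at least 3 SD above the mean of all compounds, about 16000 in these data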;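 further: 100 nL of 1 mM stock went into each well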
* marks the source's active call; other numbers are inactive results. The list is partial; rates above refer to the full screens.

Sample of the layout, 4 compounds:
Compound	Bead autofluor
C[C@@H]1CN([C@@H](C)CO)C(=O)c2cc(Br)cnc2O[C@H]1CN(C)Cc1ccc(-c2ccccc2)cc1	2929
COCC(=O)N(C)C[C@H]1Oc2cc(C#Cc3cccnc3)ccc2S(=O)(=O)N([C@H](C)CO)C[C@H]1C	3728
CC1(C(=O)O)CCN1C(=O)c1ccccc1F (stereo unspecified)	3518
Cc1cc2nc(-c3ccc(F)cc3)c(Cc3cccc(Cl)c3)n2c(C)c1Br	4535

The whole of this part, repeating the preview:
Compound	Bead autofluor
C[C@@H]1CN([C@@H](C)CO)C(=O)c2cc(Br)cnc2O[C@H]1CN(C)Cc1ccc(-c2ccccc2)cc1	2929
COCC(=O)N(C)C[C@H]1Oc2cc(C#Cc3cccnc3)ccc2S(=O)(=O)N([C@H](C)CO)C[C@H]1C	3728
CC1(C(=O)O)CCN1C(=O)c1ccccc1F (stereo unspecified)	3518
Cc1cc2nc(-c3ccc(F)cc3)c(Cc3cccc(Cl)c3)n2c(C)c1Br	4535
CC(=O)Nc1ccc(CN(C)c2c(C)nc3ccc(C(=O)NCCCn4ccnc4)cn23)cc1	3405
COc1ccc(S(=O)(=O)NC(=O)C2(C)CCN2C(=O)Cc2ccccc2Cl)cc1OC (stereo unspecified)	3541
CCOC(=O)/C(=C(/C)N)C1CC(=O)NC1=O (stereo unspecified)	3720
O=C1NCCN1CCNc1nc(NCC2CC2)nc2cc(-c3ccccc3)sc12	3670
CC1(C)CN(c2ccccc2)C(=O)[C@H]1CC(=O)Nc1ccccc1	3755
COc1ccc(CC(N)c2csc(NC(=O)Nc3cccc(C(F)(F)F)c3)n2)cc1 (stereo unspecified)	3962
Cn1ccc2c(-c3cncc4ccccc34)cc3c(c21)C1CCC3O1 (stereo unspecified)	4429
CCc1ccc2c(c1)NC(=O)C2(C)Cc1ccccc1 (stereo unspecified)	3047
CC(C)(C)OC(=O)N1CCC[C@@H]1C(=O)NCc1ccccc1Cl	4552
COC(=O)[C@]12CCCCC=C1N(Cc1ccc(Cl)cc1Cl)C(=O)[C@H](CC(=O)N1CCC(c3ccccc3)CC1)C2	4064
O=C1C=C(CCc2ccccc2)CCC1	4088
OC[C@@H]1CN(C2CCCC2)C[C@H](n2cnc3c(NC4CC4)ncnc32)O1	4025
Cc1cccc(C)c1NC(=O)Nc1nnc([C@H]2C[C@H](O)[C@@H](CO)O2)s1	2805
O=C(c1ccc2ccccc2c1O)N1CCCCC1	4029
CC1(C(=O)Nc2ccc3c(c2)OCO3)Cc2c(-c3ccc4c(c3)OCO4)ccnc2O1 (stereo unspecified)	3765
CCCCC[C@H](C)N1C[C@H](COCc2ccccc2)Oc2cc(N3CC[C@H](O)C3)ccc2S1(=O)=O	5983
CC(C)=CCC[C@H](C)C[C@@H]1CC2=C(C(=O)OC(C)(C)O2)[C@@H](c2ccc(F)cc2)O1	5298
C[C@H]1COc2cccc(N3CCC[C@@H]3CO)c2S(=O)(=O)N1	5568
Nc1ccccc1SC(CC(=O)c1ccccc1)c1ccc([N+](=O)[O-])cc1 (stereo unspecified)	3935
Cc1cccc(-c2n[nH]nc2C2=CC(=O)CC(C)(C)C2)c1	3201
O=C(/C=C/[C@H]1O[C@@H](n2cnc3c(NC(=O)c4ccccc4)ncnc32)[C@H](O)[C@@H]1O)NCc1cccs1	5127

Reformatted field by field: four of the compounds above.
> COc1ccc(CC(N)c2csc(NC(=O)Nc3cccc(C(F)(F)F)c3)n2)cc1 (stereo unspecified)
  Bead autofluor: 3962

> OC[C@@H]1CN(C2CCCC2)C[C@H](n2cnc3c(NC4CC4)ncnc32)O1
  Bead autofluor: 4025

> Cc1cc2nc(-c3ccc(F)cc3)c(Cc3cccc(Cl)c3)n2c(C)c1Br
  Bead autofluor: 4535

> CCCCC[C@H](C)N1C[C@H](COCc2ccccc2)Oc2cc(N3CC[C@H](O)C3)ccc2S1(=O)=O
  Bead autofluor: 5983

Continued:
Compound	Bead autofluor
Cn1c(=O)c2cc(NC(=O)Cc3ccccc3F)ccc2n1-c1ccc(C(C)(C)C)cc1	3579
O=C(NC1CCCCC1)c1ccc(-c2cn[nH]c2)c2ccoc12	3926
Cc1cc(=O)[nH]c(NNC(=O)c2ccc(Cl)cc2)n1	2813
CCc1nc2ccc(C(=O)NCC3CCCCC3)cn2c1N(CCC(C)C)CCN(C)C	2898
C[C@H](c1ccccc1)N1C[C@H](COCc2ccccc2)Oc2cc(N3CC[C@H](O)C3)ccc2S1(=O)=O	5417
Cc1ccccc1CNC(=O)c1csc([C@@H]2C[C@H](O)[C@@H](CO)O2)n1	2816
CCOC(=O)C1=CC[C@@H](c2ccccc2)N(S(=O)(=O)c2ccc(C)cc2)[C@H]1/C=C/c1ccccc1	5599
CC1CCC(NC(=O)c2cccc(S(=O)(=O)N3CCOCC3)c2)CC1 (stereo unspecified)	3586
CC(=NNC(=S)N1CCCC1)c1ccccn1	3636
C[C@@H]1CN([C@H](C)CO)C(=O)CCCn2nncc2CO[C@H]1CN(C)S(=O)(=O)c1ccc(Oc2ccccc2)nc1	3774
CC(=O)c1c(O)c(C)c(O)c2c1OC1=Cc3c(c(C)nn3-c3ccccc3)C(=O)C12C (stereo unspecified)	3016
CCCCC[C@H]1CCCCC[C@@H](O)C[C@@H](O)[C@@H](O)/C=C/C(=O)O1	5969
N#CC(=Cc1ccnc2ccccc12)c1ccccc1	3750
COc1ccccc1Cc1c(C2CCCCC2)nc2ccc(Cl)cn12	6421
CCCNC(=O)C1(C)CCCN(C(=O)Cc2ccc(OC)c(OC)c2)C1 (stereo unspecified)	4102
CCNC(=O)C1(C)CCN1Cc1cc(-c2ccccc2)n(C)n1 (stereo unspecified)	3462
Cc1c(Cl)cccc1NC(=O)CSc1nc(=O)n(CCCN2CCOCC2)c2c1CCCC2	4142
O=C1NC[C@@H](CCCCN2C[C@H](Cc3ccc(O)cc3)N(CC3CCCCC3)C(=O)C2=O)N(Cc2ccccc2)C1=O	5555
CC(=O)Nc1ccc(C=CC(=O)c2ccc([N+](=O)[O-])cc2)cc1	3614
CCCCn1nnnc1C(c1cc2ccccc2o1)N1CCOCC1 (stereo unspecified)	5825
O=C(CSc1nnc(C2CC2)n1C1CC1)N1CCN(c2ccc(O)cc2)CC1	2905
CC1(C(=O)O)CCN1C(=O)COc1ccc(Cl)cc1 (stereo unspecified)	3439
NC(c1csc(Nc2cnccn2)n1)C1CCCCC1 (stereo unspecified)	2966
O=C(NCc1ccc(C(F)(F)F)cc1)c1cccc2c(-c3ccc(F)c(F)c3)coc12	3722
COc1ccc(Cl)cc1-c1cc(C(=O)Nc2cc(OC)c(OC)c(OC)c2)[nH]n1	3875
O=C1NN(c2ccccc2)C(=O)C1=Cc1ccccc1O	3858
O=c1[nH]c(=S)[nH]c2c1C(c1ccccc1)OC(C1CCCCC1)C2 (stereo unspecified)	5979
CC(C)Oc1ccc(CN2CCC2(C)C(=O)NCc2cccc3ccccc23)cc1 (stereo unspecified)	2857
Cc1ccc(CNC(=O)C2(C)CCN2C(=O)Cc2ccc(C(C)(C)C)cc2)cc1 (stereo unspecified)	2874
O=c1c2ccccc2[nH]c(=S)n1-c1cccc(Cl)c1	4014
Cc1cccc(CSCC(=O)N2CCN(S(=O)(=O)c3ccccc3C#N)CC2)c1	3840
O=C1NC[C@H](CCCCN2C[C@H](Cc3ccc(O)cc3)N(CCc3ccccc3)C(=O)C2=O)N(CCc2ccccc2)C1=O	5844
COC(=O)[C@H]1C[C@H](OC(=O)NCc2ccco2)[C@@]2(O)CN(S(=O)(=O)c3ccc(C)cc3)CC2[C@H]1C(=O)OC (stereo partly specified)	3648
COc1ccccc1C(O)c1ncc(-c2cccc3ccccc23)[nH]1 (stereo unspecified)	2808
Cn1cccc1C(=O)OCC(=O)N1CCc2ccccc2C1	2782
CCCNC(=O)C1(C)CCN1C(=O)c1ccc(C(C)(C)C)cc1 (stereo unspecified)	4253
CNC(=O)C[C@H]1C(=O)N(Cc2ccccc2)C[C@@H]1Cc1ccccc1	3632
O=C(NCCc1ccccc1F)c1[nH]c(C(F)(F)F)nc1-c1ccccc1	5463
O=C(NCc1ccccc1Cl)c1csc([C@@H]2O[C@H](CO)[C@@H](O)[C@H]2O)n1	3690
CC(C)OC(=O)N(C)C[C@H]1OCc2cnnn2CCCC(=O)N([C@H](C)CO)C[C@@H]1C	2895
C[C@@H]1CN([C@@H](C)CO)C(=O)CCCn2cc(nn2)CO[C@H]1CN(C)S(=O)(=O)c1ccc(Oc2ccccc2)nc1	3477
NC(CO)c1csc(NC(=O)Nc2cccc(Cl)c2)n1 (stereo unspecified)	3734
COc1ccc(C(C)(O)c2nc(-c3ccoc3)cs2)cc1 (stereo unspecified)	3557
Cc1ccc(S(=O)(=O)N2C[C@H]3C(=O)C[C@@H](c4ccccc4)N(S(=O)(=O)c4ccc(C)cc4)[C@H]3C[C@H]2c2ccccc2F)cc1	4372
CCOC(=O)c1ccc(NC(=O)Nc2nc3ccccc3s2)cc1	2876
O=C(C1=NOC2(C1)C(=O)Nc1ccccc12)N1CCCC1 (stereo unspecified)	4962
O=C(Nc1ccccc1Cl)Nc1ccnn1C1CCN(C(=O)C2CCOC2)CC1 (stereo unspecified)	3831
C#CCOCC1CN(C)C(=O)O1 (stereo unspecified)	2784
OC(c1ccc(F)cc1)c1nc(-c2cccc(F)c2)cs1 (stereo unspecified)	3390
O=C1NN=C2CCCCCCCCCCC12 (stereo unspecified)	3750

(list continues)
Compound	Bead autofluor
COc1ncnc2c1ncn2CCCNCC(c1ccccc1)c1ccccc1	3267
COc1ccc(C(=O)N(C)C(C)c2nccs2)cc1OC1CCN(C(C)=O)CC1 (stereo unspecified)	3016
COc1cc(C)ccc1S(=O)(=O)NC(=O)C1(C)CCN1C(=O)Cc1ccc(C(C)(C)C)cc1 (stereo unspecified)	2931
CC(=O)C1=C(O)C(=CC=Cc2ccccc2)OC1=O	3897
CCCS(=O)(=O)NC(=O)C1(C)CCN(C(=O)c2c(-c3ccccc3)noc2C)C1 (stereo unspecified)	3447
CNc1cccc(-c2ccccc2CO)n1	3735
COc1ccc2c(c1)CCC1(C)CC(=O)C=C21 (stereo unspecified)	2809
COc1ccccc1Nc1cc(C)nc2c(C)cccc12	3582
CCCCn1nnnc1C(c1ccnc2ccccc12)N1CCN(C/C=C/c2ccccc2)CC1 (stereo unspecified)	5939
O=C(CSc1nnc(COc2ccc(Cl)cc2)o1)N(c1ccccc1)C1CCS(=O)(=O)C1 (stereo unspecified)	4178
O=C(Nc1c(-c2ccccc2)[nH][nH]c1=O)c1ccc(Br)cc1	6015
O=C(Nc1ccc(F)c(Cl)c1)c1cc(C2CCCN(C(=O)c3cccs3)C2)on1 (stereo unspecified)	3715
COc1ccc(S(=O)(=O)N(C)C[C@H]2Oc3ncc(C#CC4(O)CCCC4)cc3C(=O)N([C@@H](C)CO)C[C@@H]2C)cc1	3748
Cc1cc(C(=O)COC(=O)c2ccc(NC(=O)CC#N)cc2)c(C)n1CC(F)(F)F	3402
Cc1nc2c(OCc3cccc(Cl)c3)cccn2c1N(C)CC1CC1	3861
CC(=O)Nc1ccc(-c2ccnc3c2CC(C)(C(=O)Nc2ccc(F)c(Cl)c2)O3)cc1 (stereo unspecified)	3877
COC1=C(Br)C(=O)c2nc(C)ccc2C1=O	3667
CCOC1=C2CN(S(=O)(=O)c3ccc(C)cc3)[C@H](c3ccccc3)C[C@H]2n2c(=O)n(-c3ccccc3)c(=O)n2C1	5582
CCCN(CCC)Cc1cc(=O)oc2ccc3ccccc3c12	4353
OC[C@@H]1CN(Cc2ccco2)C[C@H](n2cnc3c(NC4CC4)ncnc32)O1	3554
CNc1cc(-c2cnn(CC(C)C)c2)ncn1	4086
Nc1ncnc2c1ncn2[C@@H]1O[C@H](CNC(=O)[C@H](N)Cc2cccnc2)[C@@H](O)[C@H]1O	6299
CCc1nc2c(OCc3ccccc3)cccn2c1N(C)C(=O)c1ccc2c(c1)OCO2	2948
Cc1ccccc1CC(=O)N1CCC(CCC(=O)NC2CC2)CC1	3488
c1ccc(NN=C(c2ccccc2)c2cccs2)cc1	3510
Cc1cccc(NC(=O)CSCC(=O)Nc2cc(C(F)(F)F)ccc2N2CCOCC2)c1	3902
CC1(c2cccc(Br)c2)NC(=O)N(CC(=O)Nc2ccc(N3CCCCC3)cc2)C1=O (stereo unspecified)	3644
O=C(NCc1ccccc1)C1c2ccccc2OCC(=O)N1CCCN1CCOCC1 (stereo unspecified)	4954
Cc1ccc(S(=O)(=O)N2C[C@H]3C(=O)C[C@@H](c4ccc(Cl)cc4)N(S(=O)(=O)c4ccccc4C)[C@H]3C[C@H]2c2cccc(Cl)c2)cc1	2989
COc1ccc(OC)c(NC(=O)C2(C)CCN2C(=O)C(C)(C)c2ccccc2)c1 (stereo unspecified)	3860
CCOC(=O)[C@]12Cc3cc(Cl)ccc3[C@H]1N(C1CCCCC1)C(=O)c1cc(OC)ccc12	5275
O=C(CSc1nnc2ccc(-c3ccccn3)nn12)Nc1ccc(F)cc1	2941
O=C1[C@H]2[C@@H](c3ccc(C(F)(F)F)cc3)N[C@]3(CCCN(Cc4ccc(Br)cc4)C3=O)[C@H]2C(=O)N1Cc1ccccc1	3581
CSc1ccc(CN2CCC2(C)C(=O)Nc2cnc3ccccc3c2)cc1 (stereo unspecified)	2944
CCCCCCCCN1C(=O)[C@H](CC(=O)N2CCSCC2)C[C@@]2(C(=O)OC)CCCCC=C12	6168
CCc1ccc(-c2ccc(SCC(=O)NC3CCCC3)nn2)cc1	3780
CC(=O)Oc1ccc(Cn2c(C)c(C(=O)NCc3ccc(C#N)cc3)sc2=O)cc1	5588
COc1ccc(C(N)c2csc(Nc3ncccn3)n2)cc1 (stereo unspecified)	4209
Cc1ccc([C@H]2C[C@H](O)[C@@H](n3cc(C4CC4)nn3)CN2CC2CCCCC2)cc1	2890
